Screening results from PubChem.
2A StopGo – FMDV 2A StopGo reporter, luciferase signal; human cells with a luciferase reporter of 2A StopGo recoding; control for the full effect not named in the record; Potency, µM (highest dose often 57.9 µM), for inactives: at the top dose signal change, negative = less light; hit rate 1.2% among 410,000; AID 1159524; active = well fitted falling curve with a large enough effect; inconclusive = small, poorly fitted or top-dose-only effect; inactive = no such curve, though single readings can be large or run the other way; tested in HEK293T cells; also: nearly all actives have a fitted effect of over 45% in size; luciferase light after 4 h
RE007 growth inh – less growth of the S. pombe RE007 Vpr strain; hit rate 0.21% among 360,000; S. pombe RE007 Vpr strain, BacTiter-Glo ATP luminescence, 24 h; control for the full effect not named in the record; AID 651644; Potency, µM (titrated, usually from 92.2 µM), for the others: top-dose activity change, negative = less growth; active = well fitted falling curve with a large enough effect; inconclusive = small, poorly fitted or top-dose-only effect; inactive = no such curve, though single readings can be large or run the other way;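 also: nearly all actives have a fitted effect of over 50% in size; the assay follows cell death caused by Vpr and the record does not say whether a fall means rescue or toxicity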
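Fission yeast RE007 carrying one integrated HIV-1 vpr copy, seeded at OD 0.01 in PMG+AL medium with 23 nL pinned compound. Grown 24 h at 30 degrees; viability read by BacTiter-Glo luminescence after 5 min.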
An asterisk follows results filed as active; u = inconclusive; [ ] = another dose, or the depositor's remark. % is scaled to controls: 0 for no effect and ±100 for the full control effect; potency is read from the fitted curve at half-maximal effect. Not all compounds are listed; count on the stated rates, not on these rows.

SMILES,RE007 growth inh,2A StopGo
O=C(Nc1cccc(C(F)(F)F)c1)Nc1nnc([C@H]2C[C@H](O)[C@@H](CO)O2)s1,4%,-7%
CCc1nc2ccc(C(=O)N(CC)CCN(C)C)cn2c1N(C)CCCc1ccccc1,-26%,-22%
O=C(NCc1cc(Cl)cc(Cl)c1)c1ccc2nc([C@@H]3O[C@H](CO)[C@@H](O)[C@H]3O)[nH]c2c1,9%[18.4 µM],-8%
COc1ccc(N2C(=O)c3ccccc3NC(=O)C2C(=O)NCCc2ccccc2F)cc1 (configuration not stated),2%,9%
COc1ccccc1Cc1c(-c2ccco2)nc2c(C)cc(Br)cn12,u,14µM*
CCOC(=O)/C=C/c1ccc(C(F)(F)F)cc1S(=O)(=O)NC(C)(C)C,0%,6%
CCn1c(=O)c2[nH]c(Cl)nc2n(CC)c1=O,11%,-1%
Cc1ccc(S(=O)(=O)N(C)CC(=O)N(C)Cc2cccs2)cc1,-7%,-7%
CC1(C(=O)NS(=O)(=O)Cc2cccc(Cl)c2)CCN1C(=O)CCc1ccccc1 (configuration not stated),-14%[18.4 µM],-4%
O=C(c1ccccc1F)N1CCCC(N2CCN(Cc3ccc4c(c3)OCO4)CC2)C1 (configuration not stated),4%,-22%
COc1cccc(-c2cnc3c(NC(C)=O)cc(-c4ccsc4)cn23)c1,6%[18.4 µM],-9%
C[C@@H]1CN([C@H](C)CO)C(=O)CCCn2cc(nn2)CO[C@H]1CN(C)C(=O)NC1CCCCC1,18%,0%
CC1(C(=O)NC2CCCC2)CCN1C(=O)Cc1ccc(-c2ccccc2)cc1 (configuration not stated),-11%[18.4 µM],u
CC(C)(C)C1CCNC(=O)CC1 (configuration not stated),-26%,-24%
NC(CO)c1csc(Nc2ccc(C(F)(F)F)cn2)n1 (configuration not stated),10%,-3%
CCc1nc2c(OCc3ccc(C(F)(F)F)cc3)cccn2c1N(C)C(=O)c1ccco1,-11%[18.4 µM],u
COc1ccc2c(c1)CO[C@]21O[C@H](CCO)C[C@H](O)[C@H]1O,-8%,-7%
O=C(NC1CCCC1)C(c1ccccc1)n1c(-c2cccs2)nc2ccccc21 (configuration not stated),-7%,-23%
CCOc1ccc(Br)cc1S(=O)(=O)NCC(c1ccc(OC)cc1)N1CCOCC1 (configuration not stated),357%,30%[activator]
CCOc1ccccc1-c1nc2c(s1)CCc1onc(-c3ccc(OC)cc3)c1-2,13%,-19%
CC1(C(=O)Nc2cccc3c2CCCC3)CCN1C(=O)c1cccc(F)c1 (configuration not stated),0%[18.4 µM],-19%
CCCCNC(=O)c1nc(-c2cc3ccccc3[nH]2)oc1-c1ccccc1,-4%,-25%
CCOC(=O)[C@]12CCCC=C1N(CCc1ccc(OC)c(OC)c1)C(=O)[C@H](CC(=O)NCCCCc1ccccc1)C2,-20%,-12%
COC(=O)C1=C(c2ccc(S(C)(=O)=O)cc2)C[C@@H]2CC[C@H]1N2C(=O)NC(C)C,-9%,-20%
COC(=O)C[C@H]1c2ccccc2S(=O)(=O)N1C(C)C,16%,0%
CN(C)c1ccc2nc3ccc(=O)cc-3sc2c1,45µM*,75%[activator]
O=C1C=C(C#Cc2ccccc2)C[C@@H](c2ccc(F)cc2)C1,-3%,u
COC(=O)[C@@]12C[C@@H](CC(=O)NCc3ccc(C)o3)C(=O)N(Cc3ccco3)C1=CCC(C)(C)C2,-4%,-11%
COc1ccc(NC(=S)N2CCN(c3ccc4c(c3)C3CCN(C(=O)OCc5ccccc5)C4C3)CC2)c(OC)c1 (configuration not stated),9%,8%
CC1(C(=O)NS(=O)(=O)c2ccc(Cl)cc2)CCN1C(=O)CCC1CCCC1 (configuration not stated),9%[18.4 µM],-9%
O=C(Nc1ccccc1Cl)c1cc(C2CCCN(C(=O)C3CCCCC3)C2)on1 (configuration not stated),1%,0%
CCc1nc2ccc(C(=O)NCCCN3CCCC3=O)cn2c1N(C)C(=O)Nc1ccccc1OC,-14%[18.4 µM],-14%
COc1ccc(-c2ccc(CCC(=O)O)n2-c2cc(OC)ccc2OC)cc1,0%,-1%
CCCCNC(=O)C1c2ccccc2OCC(=O)N1Cc1cccnc1 (configuration not stated),6%,-8%
CC(=O)c1cccc(-c2ccnc3c2CC(C(=O)Nc2ccc4c(c2)OCO4)O3)c1 (configuration not stated),-13%,u
CCOC(=O)[C@]12CCC=C1N(Cc1ccc(Cl)cc1Cl)C(=O)[C@H](CC(=O)NCCC(C)C)C2,4%,14%
CC1(C(=O)Nc2cccc3ccccc23)CCN1C(=O)Cc1ccc(Cl)cc1Cl (configuration not stated),4%[18.4 µM],-16%
C/C=C1\NC(=O)[C@H](C)NC(=O)[C@@H](NC(=O)[C@@H](Cc2ccc(O)cc2)NC(=O)[C@@H](NC(=O)/C(C)=C/C)C(C)C)[C@@H](C)OC(=O)[C@H](CCCCc2ccc(O)cc2)NC(=O)[C@@H](CCC(=O)OC)NC1=O,7%,-15%
CC1(C(=O)Nc2ccc(Cl)c(C(F)(F)F)c2)Cc2c(-c3ccc(C(N)=O)cc3)ccnc2O1 (configuration not stated),-6%[18.4 µM],u
COCCN(C(=S)Nc1ccc(OC)c(Cl)c1)C1CCN(C(C)=O)CC1,-2%,-4%
CCCCCC(CC(=O)NO)C(=O)NC(C(=O)N1CCCC1CO)C(C)C (configuration not stated),-4%[18.4 µM],-18%
Cc1nc2c(OCc3ccc(C#N)cc3)cccn2c1N(C)C(=O)CCC1CCCC1,-5%,22µM*
Cc1nc(C(F)(F)F)ccc1C(=O)N1CCC1(C)C(=O)NS(=O)(=O)c1ccccc1Cl (configuration not stated),-1%[18.4 µM],-6%
CN(C)c1ccc(CNC(=O)CC[C@H]2O[C@@H](n3cnc4c(NC(=O)c5ccccc5)ncnc43)[C@H](O)[C@@H]2O)cc1,-7%,0%
CCN(CC)C(=O)C1=C(C)N(Cc2ccccc2)C(=O)C(CC(=O)NCCc2ccccn2)C1 (configuration not stated),3%,0%
Cc1ccc(NC(=O)C2c3ccccc3-c3ccccc32)cc1,3%,-3%
COc1cc2oc(=O)c(CC(=O)N3C[C@H]4C[C@@H](C3)c3cccc(=O)n3C4)c(C)c2cc1Cl,-1%,-9%
COCCNC(=O)C1CCCN(C(=O)c2ccc3ccccc3n2)CC1 (configuration not stated),57%,-10%
C[C@@H]1CN([C@@H](C)CO)S(=O)(=O)c2ccc(Br)cc2O[C@H]1CN(C)Cc1ccccn1,20%,u
O=C(C1=NOC2(C1)C(=O)N(Cc1ccccc1)c1ccccc12)N1CCOCC1 (configuration not stated),1%,-13%
CCOC(=O)Cc1c(-c2cccc(Cl)c2)nc2c3ccccc3ccn12,3%,-25%
CCc1nc2ccc(C(=O)NCc3ccc4c(c3)OCO4)cn2c1N(CCC(C)C)CCN(C)C,-13%,10%
Cc1ccc(Nc2[nH]c(=O)c3ccccc3c2C(=O)c2ccccc2)cc1,2%,6%
O=C(CNC(=O)c1cc(-c2ccccc2)nn1-c1ccccc1)Nc1ccccc1Br,0%,-9%
CCCCCCn1cc(CN(C)C2CN(Cc3cn(CCCCCC)nn3)S(=O)(=O)C2)nn1 (configuration not stated),6%,0%
CCNC(=O)Nc1ccc2c(c1)c(=O)n(C)n2CC=C(C)C,14%[18.4 µM],17%
COc1ccc(S(=O)(=O)NCc2ccc(C(=O)NCCN(C)Cc3ccccc3)cc2)cc1,-14%,-22%
O=C(Cn1sc2ccccc2c1=O)Nc1ccccc1,u,u
CC(=O)C1=CCC(c2cccc(Cl)c2)N(S(=O)(=O)c2ccc(C)cc2)C1 (configuration not stated),0%,-36%
CCN(CC)C(=O)C1=C(C)N(Cc2ccccc2)C(=O)C(CC(=O)NC2CCCC2)C1 (configuration not stated),-1%,-1%

(further entries)
SMILES,RE007 growth inh,2A StopGo
Cc1ccc(OCCN2CCC2(C)C(=O)Nc2ccc3c(c2)OCCO3)cc1 (configuration not stated),-7%[18.4 µM],-18%
Cc1nnc(NC(=O)CCC2CCCCC2)s1,6%,-4%
COc1ccc(-c2ccc(C(=O)Nc3ccc(C(C)C)cc3)c3occc23)c(C)c1,-4%,-24%
CCN(C(=O)CSc1nnc(-c2cccc(Cl)c2)n1N)c1c(N)n(Cc2ccccc2)c(=O)[nH]c1=O,2%,-9%
CCCCNc1c(CC(C)C)nc2nc(C)cc(C)n12,-27%,-16%
O=C(NCc1ccccc1)c1cc(C2CCCN(S(=O)(=O)c3ccccc3)C2)on1 (configuration not stated),1%,1%
CCOc1cc(OCC)cc(C(=O)N2CCC[C@H]2C(=O)N2CCC[C@H]2C(=O)NCc2ccc(F)cc2F)c1,1%,0%
Cc1noc(C)c1NC(=O)N(C)C[C@H]1OCc2cnnn2CCCC(=O)N([C@@H](C)CO)C[C@H]1C,-18%,0%
C[C@@H]1CN([C@H](C)CO)C(=O)CCCn2nncc2CO[C@@H]1CN(C)S(C)(=O)=O,1%,-22%
Clc1ccc2nc(C3CCCCC3)c(Cc3ccccc3)n2c1,-16%,7%
COc1ccc(S(=O)(=O)N2CCC(C(=O)N[C@@H](C)C(=O)NCc3ccco3)CC2)cc1,5%,-13%
c1cnc(NCCSSCCNc2ncccn2)nc1,1%,-15%
CCCn1c(CCNc2nc(-c3cccc(Br)c3)cs2)nc2ccccc21,-17%,-23%
COCCNC(=O)C1CCCN(Cc2cccc(C(F)(F)F)c2)CC1 (configuration not stated),9%,-26%
CN1CCN(C(=O)C2=C[C@H](C3CC3)C[C@H](OCc3ccc(CO)cc3)O2)CC1,6%,1%

Complete entries as entered above. Values in the order: RE007 growth inh, 2A StopGo
Profile of CCCCNc1c(CC(C)C)nc2nc(C)cc(C)n12 = -27%, -16%
Profile of C[C@@H]1CN([C@H](C)CO)C(=O)CCCn2nncc2CO[C@@H]1CN(C)S(C)(=O)=O = 1%, -22%
Profile of CCCn1c(CCNc2nc(-c3cccc(Br)c3)cs2)nc2ccccc21 = -17%, -23%

The listing continues:
SMILES,RE007 growth inh,2A StopGo
C[C@@H]1CN([C@H](C)CO)C(=O)CCCn2nncc2CO[C@@H]1CN(C)S(=O)(=O)c1ccccc1F,-2%,-28%
Nc1ncnc2nn(C3OC(CO)C(O)C3O)nc12 (configuration not stated),0%,-24%
COc1ccccc1NC(=O)CN1CCN(CC(=O)Nc2ccccc2F)CC1,5%,-4%
COc1cccc(NC(=O)c2cnc(NS(=O)(=O)c3ccccc3)nc2)c1,17%,-18%
CC(C)c1cccc(-c2csc(C(O)c3ccco3)n2)c1 (configuration not stated),2%,42%[activator]
O=C(CN1CCN(C(C(=O)Nc2cc(C(F)(F)F)ccc2Cl)c2ccccc2)CC1)NC1CC1 (configuration not stated),-13%,40µM*
O=c1ccn2c(n1)SC(c1ccccc1)C2 (configuration not stated),-4%,-5%
C=Cc1ccc(Cn2c(C)c(C(=O)NCc3cccc(C)c3)sc2=O)cc1,10%[18.4 µM],-5%
CC(C)(C)c1ccc(CC(=O)N2CCC2(C)C(=O)Nc2cccc3ccccc23)cc1 (configuration not stated),1%[18.4 µM],-25%
C=C1C(=O)N(C)CCC1C(CC)C(=O)OC (configuration not stated),15%,-11%
NC(=O)c1ccsc1NC(=O)COC(=O)Cc1ccc(F)cc1,9%,0%
COc1ccc(C(C(=O)NCc2ccccc2)n2c(=O)c(-c3ccccc3)nc3ccccc32)cc1 (configuration not stated),10%,11%
COc1ccc(-c2cc(NC=O)c3ncc(-c4cc(OC)c(OC)c(OC)c4)n3c2)c(OC)c1,8%,u
O=C(COc1ccc(F)cc1)Nc1nc(-c2cccnc2)cs1,-10%,-7%
Cc1c(CC(=O)N2CCC(O)CC2)c(=O)oc2cc3c(cc12)CCC1(CCCCC1)O3,-1%,-12%

3 successive compounds from above, for reference:
SMILES,RE007 growth inh,2A StopGo
C[C@@H]1CN([C@H](C)CO)C(=O)CCCn2nncc2CO[C@@H]1CN(C)S(=O)(=O)c1ccccc1F,-2%,-28%
Nc1ncnc2nn(C3OC(CO)C(O)C3O)nc12 (configuration not stated),0%,-24%
COc1ccccc1NC(=O)CN1CCN(CC(=O)Nc2ccccc2F)CC1,5%,-4%

(next part)
SMILES,RE007 growth inh,2A StopGo
c1cc2c(c(NC3=NCCCS3)c1)CCCC2,-28%,-9%
O=C(C(=O)N1CCC(c2ccccc2)CC1)c1ccccc1,u,0%
CC1=C(C(=O)N(C(C)C)C(C)C)CC(CC(=O)NCCN2CCOCC2)C(=O)N1Cc1ccc(F)cc1 (configuration not stated),-12%,-17%
CCCCN(C=O)c1c(CC)nc2ccc(C(=O)NCCc3ccccn3)cn12,-24%,-13%
CC1(C(=O)O)CCCN(C(=O)c2ccc(OC(F)F)cc2)C1 (configuration not stated),4%,-1%
